High-throughput results from PubChem BioAssay.
HSD17B inhib: qHTS Assay for Inhibitors of HSD17B4, hydroxysteroid (17-beta) dehydrogenase 4 | 3-hydroxyacyl-CoA dehydrogenase type-2 (Homo sapiens), Q99714 | recombinant HSD17B10, NADH fluorescence kinetic; many of its hits are not listed in these tables | 75,000 compounds, 7.6% hits | AID 893, 2007 | Potency, µM (series often up to 57.1 µM), for the others: top-dose activity change, negative = inhibition, hits mostly inhibitors; active = well fitted inhibition curve with a large enough effect; inconclusive = small, poorly fitted or top-dose-only effect; inactive = no such curve, though single readings can be large or run the other way;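 note: the protocol describes HADH2 (HSD17B10) and not the HSD17B4 of the title; nearly all actives have a fitted effect of over 70% in size; most hits overshoot -100% by far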
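Enzyme plus compound, 15 min room temperature; substrate mix added (NAD+ 1 mM, beta-hydroxybutyryl-CoA 90 uM final); plates read kinetically for NADH fluorescence. HADH2 was His-tagged, E. coli-derived, 20 nM.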
The depositor's hits bear a star; ? = inconclusive; [ ] = remark or other dose. % is set by controls: 0 for no effect and ±100 for the full control effect; potency is the fitted concentration of half-maximal effect. Only part of the results is shown; the hit share may differ from the screen's.

SMILES	HSD17B inhib
O=S(=O)(NCCSc1ccccc1)c1ccc(F)cc1	-4%
C[C@H]1C2=C3C(C[C@H]4C(=O)N(c5ccccc5)C(=O)[C@H]4[C@H]3[C@@]3(Cc4ccccc4)C(=NCCc4c[nH]c5ccccc45)OC(=O)N3C2=O)[C@H]2C(=O)N(c3ccccc3)C(=O)[C@H]21 (some centres undefined)	-12%
Cc1cc(C(=O)Nc2ccc(S(=O)(=O)Nc3onc(C)c3C)cc2)c(C)o1	-15%
CN(C)c1oc(-c2ccco2)nc1C#N	32µM*
COc1ccc(CCn2c(N3CCN(C)CC3)nc3c2c(=O)[nH]c(=O)n3C)cc1	-8%
COc1ccc(C(N)=O)cc1NC(=O)CC(O)(C(F)(F)F)C(F)(F)F	-3%
C#CCSc1nnc(-c2ccccc2)c(=O)[nH]1	-6%
COc1ccc(OCC(=O)NCc2cccnc2)cc1	4%
CO/C=C/C#CC1(O)CCN(C)CC1	2%
Cc1ccccc1CSc1nnc(Cn2c(=O)sc3ccccc32)n1C	-1%
CCOC(=O)CSc1nc2c(sc(=S)n2Cc2ccco2)c(=O)n1-c1ccccc1	-1%
COc1ccc(CCNC(=O)c2cc3sccc3n2C)cc1OC	-1%
COC(=O)c1ccc(C(NC(=O)OCc2ccccc2)/C(I)=C/[C@@H](C)C(=O)NCc2ccncc2)cc1 (some centres undefined)	-8%
O=C(CSCc1ccccc1)Nc1nccs1	-11%
COC(=O)Nc1c(-c2ccccc2)nc2ccccn12	32µM*
CCOC(=O)c1c(NC(=O)COC)sc2c1CCCC2	-20%
COc1ccc(NC(=O)CSc2ncn(-c3ccccc3)n2)cc1Cl	5%
CCOC(=O)Nc1nnc(-c2ccccc2OC)s1	13µM*
O=C1O[C@@H]([C@@H](O)CO)[C@@H](O)[C@H]1O	3%[25.6 µM]
c1ccc(CNn2nnnc2-c2ccccc2)cc1	7%
CC(C)CNc1nc2ncnc(N)c2[nH]1	4%[11.4 µM]
Cc1ccsc1C1CC(=O)NC2=C1C(=O)CC(C)(C)C2 (centres undefined)	8%
CN(C)c1ccc(-c2cc(-n3ccnc3)ncn2)cc1	25µM*
COC(=O)c1ccccc1NC(=O)CSc1n[nH]c(CC(C)C)n1	6%
Cc1ccc(S(=O)(=O)Cc2ccc(C(=O)N3CCN(c4ccc(F)cc4)CC3)o2)cc1	-6%

Quoted at random: 2 entries already listed
SMILES	HSD17B inhib
Cc1ccc(S(=O)(=O)Cc2ccc(C(=O)N3CCN(c4ccc(F)cc4)CC3)o2)cc1	-6%
c1ccc(CNn2nnnc2-c2ccccc2)cc1	7%

Going on with the list:
SMILES	HSD17B inhib
Cc1ccc(NC(=O)Cn2cnc3c(cnn3C(C)(C)C)c2=O)cc1	2%
COC(=O)c1ccc(C)c(NC(=O)Cc2coc3cc(OC)ccc23)c1	2%
COCCn1c(N2CCN(c3ccc(OC)cc3)CC2)nc2c1c(=O)[nH]c(=O)n2C	8%
O=C(Nc1c(F)c(F)c(F)c(F)c1F)NC1CCCCC1	10%
Cc1cccc2nc(CSc3nnnn3-c3ccccc3)cn12	1%
O=C(NCCN1CCOCC1)N1CCOCC1	24%
O=C(c1ccc(Cl)cc1)c1nnc(-c2ccncc2)o1	6%
Cc1csc(SCc2nc3sc4c(c3c(=O)[nH]2)CCC4)n1	5%
O=C(O)CCc1ccc(-c2ccccc2)n1CC1CCCO1 (centres undefined)	32µM*
Cc1c(Cl)ccc2c1NC(=O)C21NC(CCC(N)=O)[C@H]2C(=O)N(c3ccc(Cl)cc3)C(=O)[C@H]21 (some centres undefined)	-3%
c1nc(N2CCCCC2)c2[nH]cnc2n1	-5%
CCOC(=O)Cc1[nH]nc2c1C(C1C=CCCC1)C(C#N)=C(N)O2 (centres undefined)	-4%
COc1ccc(C(=O)Nc2nc(C)c(C(=O)N(C)C)s2)cc1OC	-19%
O=C(Nc1nccs1)c1ccc(S(=O)(=O)N2CCCCC2)cc1	1%
O=C(c1cn(-c2ccccc2)nc1-c1ccncc1)N1CCCCC1	25µM*
O=C(c1coc(=O)c2ccccc12)N1CCN(Cc2ccccc2)CC1	-8%
Cc1cnc(C(=O)Nc2ccc(N3CCN(C(=O)OC(C)(C)C)CC3)cc2)cn1	9%
O=C(C1CC1c1ccccc1)N1CCN(c2cccc(Cl)c2)CC1 (centres undefined)	-8%
O=C1C2=CC[C@@H]3C(=O)N(c4ccc(F)cc4F)C(=O)[C@H]3[C@H]2[C@H](O)[C@H]2O[C@H]12	-10%[11.4 µM]
CCOC(=O)Cn1c(=N)n(CCOc2cccc(C)c2)c2ccccc21	5%
COc1ccc(-c2nc(NC(=O)CSc3nnc(C)s3)ns2)cc1	25µM*
O=C1CC(c2cccc(F)c2)C2=C(CCCC2=O)N1 (centres undefined)	-14%
CCc1cc2c(=O)n(C(C)C(=O)OC3CCCCC3)cnc2s1 (centres undefined)	7%
CC(C)n1c(N2CCN(C(=O)N3CCCCC3)CC2)nc2ccccc21	7%
CC(C)c1[nH]nc2c1C(c1cccnc1)C(C#N)=C(N)O2 (centres undefined)	-5%
The results go on:
SMILES	HSD17B inhib
CN(C)c1cccc(C(=O)Nc2cccc(F)c2)c1	?
O=C(CSc1nc2ccccc2[nH]1)NCCCn1ccnc1	2%
COc1ccc(-c2nnn(CC(=O)OC3CCCCC3)n2)cc1OC	-10%
[C-]#[N+]/C(C#N)=C\c1cc(C(C)(C)C)c(O)c(C(C)(C)C)c1	?
COc1cccc(C2C(C#N)=C(N)Oc3cc(C)n(Cc4ccccn4)c(=O)c32)c1OC (centres undefined)	-1%
Cc1nccn1CC(O)COC1CCCCC1 (centres undefined)	16%
CC(=O)c1cc2c(cc1NS(=O)(=O)c1ccc3c(c1)OCCO3)OCO2	5%
COc1cc(OC)cc(C(=O)NCc2cccnc2)c1	-5%
Cc1ccc(S(=O)(=O)NCc2ccncc2)cc1	-5%
CC(C)n1c(-c2ccco2)csc1=Nc1cccnc1	0%
O=C(Nc1cccc(Cl)c1)N1CCN(Cc2ccccc2)CC1	2%
c1cncc(-c2nc3cc(Cc4ccc5oc(-c6cccnc6)nc5c4)ccc3o2)c1	-3%
CN(C)Cc1cc(C(F)(F)F)ccc1C(O)(c1ccccc1)c1ccccc1	8%[11.4 µM]
Cc1nnc(NC(=O)c2ccco2)s1	0%
Cc1c(N2C(=O)C(C)SC23C(=O)Nc2ccccc23)c(=O)n(-c2ccccc2)n1C (centres undefined)	1%
CN(C)C(=O)/N=N\C(=O)N(C)C	-21%
CC(=O)N1CCC2(CC1)CN(c1ccncc1)C2	-4%
COC(=O)CSc1nnc(-c2cnccn2)n1C	6%
COc1ccc(CNC(=O)CN(CC2CCCO2)C(=O)CNS(=O)(=O)c2ccccc2)cc1 (centres undefined)	7%
COc1ccccc1C(=O)NCCn1cc(SCC(=O)Nc2nnc(C)s2)c2ccccc21	-17%
COc1ccc(CCN2C(=O)C3C4C=CC(C4)C3C2=O)cc1OC (centres undefined)	7%
NNC(=O)[C@@H](O)[C@H](O)C(=O)NN	0%[11.4 µM]
O=C(Nc1ccc(F)c(F)c1)c1ccc2c(c1)OCO2	-5%
Cc1ccc(-c2nn(C)c(=O)c3ccccc23)cc1S(=O)(=O)N1CCOCC1	4%
O=C(Nc1ccc(Br)cc1)N1CCCCCCC1	12%
New compounds follow
SMILES	HSD17B inhib
c1csc(CSc2nc3ccccc3s2)c1	-8%
O=C(CN(Cc1ccco1)C(=O)CCC(=O)Nc1ccccn1)NCCc1ccccc1	6%
O=c1c(-c2ccccc2)nc2cncnc2n1C1CC1	-26%
COc1ccc(C2C(C(=O)Nc3cccc(C)n3)CCC(=O)N2c2ccc(OC)cc2)cc1 (centres undefined)	2%
CCc1c(O)nc(SCC(=O)Nc2ccccc2)n(-c2ccccc2)c1=O	-15%
COc1cccc(CN2CCNC(=O)C2CC(=O)O)c1OC (centres undefined)	7%
O=C1CC(N2CCCc3ccccc32)C(=O)N1c1ccccc1 (centres undefined)	-8%
CC(=O)N1[C@H](Cc2ccccc2)C=C[C@]1(C)C(=O)NCc1ccc(C)o1	8%
CC(=O)c1coc2ccc(OCC(=O)O)cc12	13%
O=C(c1cnccn1)N1CCN(C/C=C/c2ccccc2)CC1	6%
O=C(c1ccc(S(=O)(=O)N2CCOCC2)cc1)N(c1ccc(F)cc1)C1C=CS(=O)(=O)C1 (centres undefined)	5%
Cc1nc(N2C(=O)C(=O)/C(=C(/O)c3ccccc3)C2c2ccco2)sc1C (centres undefined)	-18%
CS(=O)(=O)c1ccc(-c2cc(Br)sc2-c2ccc(F)cc2)cc1	?
CCOC(=O)C(C)Oc1ccc(C2NC(=O)NC(C)=C2C(C)=O)cc1Br (centres undefined)	16%
CCOC(=O)CCn1c2nc(C)cc(C)c2c(=O)n1-c1ccccc1	25µM*
CCOC(=O)N1CCN(C(=O)CCn2nc(-c3ccccc3)ccc2=O)CC1	32µM*
CCCc1cc(C(=O)Nc2sc3c(c2C#N)CCC3)no1	?
Cn1c(SCCOc2ccc(Cl)cc2)nnc1-c1ccncc1	-5%
Cc1ccc(-c2ccc(S(=O)(=O)N3CCN(C)CC3)cc2)cc1	1%
CCN(CC)CCCCn1c(-c2ccccc2)nc2c(Nc3ccccc3)nc(C)nc21	-6%
O=C(c1cc(=O)c2ccccc2o1)N1CCCc2ccccc21	-2%
COc1ccc(CCNC(=O)c2cnc3scc(C)n3c2=O)cc1OC	?
CCCCn1c(SCn2nnc3ccccc3c2=O)nc2cc(C(=O)OC)ccc2c1=O	9%
COc1ccc(C2C(C(=O)NCCN3CCOCC3)c3ccccc3C(=O)N2C)cc1OC (centres undefined)	1%
CCNc1nc(NC#N)nc(SCC(=O)OCC)n1	-2%
New compounds follow:
SMILES	HSD17B inhib
Cc1nc(-c2cccc(N)c2)cs1	10%
CC1=C(C(=O)N2CCCCC2)C2(CCC(C)CC2)OC1=O (centres undefined)	5%
CCOc1ccc2nc(NC(=O)COC)sc2c1	0%
CC(=O)NCCn1ccc2ccccc21	7%
CCn1c(SCc2nnc(-c3ccccc3)o2)nnc1-c1ccc(S(=O)(=O)N2CCCC2)cc1	-2%
O=C(CSc1nnc(CNc2ccc(F)cc2)n1Cc1ccccc1)NCc1ccco1	-4%
CCc1nnc(NC(=O)CSc2ncc(-c3ccccc3)n2C)s1	6%
O=C(Cn1c(CC(=O)N2CCCC2)nc2ccccc21)NCc1ccccc1	-4%
CCc1ccc(NC(=O)N(CCN2CCOCC2)C2CCN(C(C)=O)CC2)cc1	5%
COCCOC(=O)C1=C(C)N=c2s/c(=C\c3cccs3)c(=O)n2C1c1cccs1 (centres undefined)	6%
CCOc1cccc(-c2nnc(SCC(=O)Nc3ccc(OC)c(OC)c3)n2N)c1	-1%
Cc1cc(/N=C/N(C)C)on1	7%
O=C(Nc1ccccc1C(=O)N1CCOCC1)C1CC(=O)N(C2CCCC2)C1 (centres undefined)	0%
N#Cc1ccsc1NC(=O)CSc1ncnc2ccccc12	-26%
CCCOc1ccc(C(=O)Nc2ccc(N(C)C)cc2)cc1	25µM*
CCOc1ccc(C2/C(=C(/O)c3ccc(Cl)cc3)C(=O)C(=O)N2CCCN(C)C)cc1OC (centres undefined)	16%
O=C(O)C1CCCCC1C(=O)NCCCCc1ccccc1 (centres undefined)	8%
CCc1c(C)nc(N2CCOCC2)[nH]c1=O	2%
CCc1nnc(NC(=O)c2cc3ccccc3oc2=O)s1	-3%
Cc1ccc2c(C(=O)CN3CCCC3)c(C)[nH]c2c1	0%
CCn1c(CNc2ccc(F)cc2)nnc1SCCN1CCCCC1	8%
Cc1c(C(=O)N2CCCC2)sc(NC(=O)c2cccs2)c1C#N	3%
Cn1c(=O)cc(SCC(=O)NCCN2CCN(c3ccccc3F)CC2)c2cc(Cl)ccc21	-11%
O=C(Nc1ccc(-c2nnco2)cc1)c1ccccc1	9%
O=C(Nc1ccc(N2CCCC2)c(Cl)c1)c1ccco1	-5%
Further structures follow:
SMILES	HSD17B inhib
COc1ccc2nc(SCC(=O)NC(C)(C)C)[nH]c2c1	11%
C=CCN1C(=Nc2cccnc2)SCC1(O)c1ccc(C)cc1 (centres undefined)	-6%
CSc1ncccc1C(=O)OCC(=O)c1cc2ccccc2o1	5%
CNC(=O)CN(c1ccc(C(C)C)cc1)S(C)(=O)=O	1%
CCn1c(=O)c(C)nn2c3ccccc3nc12	4%
N[C@H](C(=O)O)c1cc(O)cc(O)c1	?

Structural class: those above with fluorine.
SMILES	HSD17B inhib
O=S(=O)(NCCSc1ccccc1)c1ccc(F)cc1	-4%
COc1ccc(C(N)=O)cc1NC(=O)CC(O)(C(F)(F)F)C(F)(F)F	-3%
Cc1ccc(S(=O)(=O)Cc2ccc(C(=O)N3CCN(c4ccc(F)cc4)CC3)o2)cc1	-6%
O=C(Nc1c(F)c(F)c(F)c(F)c1F)NC1CCCCC1	10%
O=C1C2=CC[C@@H]3C(=O)N(c4ccc(F)cc4F)C(=O)[C@H]3[C@H]2[C@H](O)[C@H]2O[C@H]12	-10%[11.4 µM]
O=C1CC(c2cccc(F)c2)C2=C(CCCC2=O)N1 (centres undefined)	-14%
CN(C)c1cccc(C(=O)Nc2cccc(F)c2)c1	?
CN(C)Cc1cc(C(F)(F)F)ccc1C(O)(c1ccccc1)c1ccccc1	8%[11.4 µM]
O=C(Nc1ccc(F)c(F)c1)c1ccc2c(c1)OCO2	-5%
O=C(c1ccc(S(=O)(=O)N2CCOCC2)cc1)N(c1ccc(F)cc1)C1C=CS(=O)(=O)C1 (centres undefined)	5%
CS(=O)(=O)c1ccc(-c2cc(Br)sc2-c2ccc(F)cc2)cc1	?
O=C(CSc1nnc(CNc2ccc(F)cc2)n1Cc1ccccc1)NCc1ccco1	-4%
CCn1c(CNc2ccc(F)cc2)nnc1SCCN1CCCCC1	8%
Cn1c(=O)cc(SCC(=O)NCCN2CCN(c3ccccc3F)CC2)c2cc(Cl)ccc21	-11%
